UCH37 DUB inh – human UCH37 deubiquitinating enzyme inhibition; Q9Y5K5; purified proteasome/UCH37, Ub-AMC cleavage fluorescence; inhibition, % (test concentration not listed); actives 0.33% (n = 330,000); AID 588478;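 active means mean of two replicates above 20%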;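 further: 0% = compound-free wells with enzyme and 100% = wells lacking proteasome; stock transfer was 100 nL into about 20 µL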
Target sequence (Q9Y5K5 whole entry, looked up): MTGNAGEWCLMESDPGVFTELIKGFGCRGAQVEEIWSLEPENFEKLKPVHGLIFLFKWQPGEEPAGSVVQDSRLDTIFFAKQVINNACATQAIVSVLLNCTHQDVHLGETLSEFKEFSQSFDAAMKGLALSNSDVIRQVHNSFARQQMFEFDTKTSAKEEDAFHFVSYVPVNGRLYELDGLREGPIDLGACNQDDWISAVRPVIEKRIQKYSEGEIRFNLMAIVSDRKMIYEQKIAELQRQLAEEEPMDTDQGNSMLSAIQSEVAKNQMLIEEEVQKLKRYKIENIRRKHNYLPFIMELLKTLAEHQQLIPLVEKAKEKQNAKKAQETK
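Material: Human UCH37 enzyme supplied as purified proteasome complex | Schedule: 30 min compound-proteasome preincubation then 25 min substrate reaction, room temperature | Detection: AMC fluorescence from Ub-AMC cleavage, excitation 355 nm, emission 460 nm | Benchmarks: Wells without proteasome as full block, compound-free enzyme plus substrate as uninhibited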
Beta cell apopt – beta cell apoptosis inhibition. INS-1E cytokine-induced death, ATP luminescence, 48 h; percent of positive-control rescue, neutral wells zero. protection from apoptosis, % (concentration not given with the values). actives 0.8% (n = 300,000). AID 435005;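 active means all replicates at 75% or more, or half of them and the mean; inconclusive means half reach 75% but not the mean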;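 further: 0% = cytokine-treated negative control wells and 100% = positive control rescue; higher means more ATP so stronger rescue from cytokine killing; wells of about 40 µL received 100 nL stock; the first replicate is given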
FGF22 binding – shifts melting point of recombinant human FGF22; recombinant FGF22 thermal shift, SYPRO orange fluorescence; percent of sucrose octasulfate shift, DMSO zero; calls only at 9.99 µM; actives 1.5% (n = 340,000); Q9HCT0;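 active means melting point raised past a set limit in the mean and every replicate; inconclusive means no clear call; three in four hits are not shown here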
Target sequence (Q9HCT0 whole entry, looked up): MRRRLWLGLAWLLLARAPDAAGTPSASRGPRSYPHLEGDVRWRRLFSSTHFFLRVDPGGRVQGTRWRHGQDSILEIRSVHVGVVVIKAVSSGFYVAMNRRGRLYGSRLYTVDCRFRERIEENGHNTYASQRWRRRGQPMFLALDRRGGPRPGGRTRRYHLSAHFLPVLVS
rRNA inh HTS – selective bacterial rRNA inhibition in E. coli. E. coli WT GFP vs humanized-ribosome RFP mutants, fluorescence, 24 h; stronger effect = lower value; DMSO median 0, no signal -100. GFP signal change (wild-type ribosome), % (no concentration beside the values). actives 1.6% (n = 350,000). AID 720706;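 active means significant combined selectivity score with lowered wild-type GFP, culture density cut under 30%, mutant RFP and density less affected; inactive means any of these conditions unmet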; further: one replicate is shown; some compounds called inactive have numbers as strong as hits
T cruzi inh – blocks replication of Trypanosoma cruzi. T. cruzi beta-gal in NIH3T3, luminescence, 90 h. actives 1.4% (n = 300,000). inhibition, % (concentration not given with the values);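 active means mean inhibition across valid replicates above about 55%, limit read from the data; inconclusive means mean below that limit but half or more replicates reach it; inactive means mean below it, under half of replicates reach it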;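 further: signal also drops with host cell toxicity which is not excluded here; 0% = plate median of DMSO wells and 100% = zero luminescence signal; higher percent means less beta-gal luminescence so fewer parasites; stock transfer was 50 nL into about 50 µL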
AF4-AF9 inh – MLL-AF4/AF9 protein interaction inhibition | P42568 | AlphaScreen, biotin-AF4 peptide binding to FLAG-AF9 | inhibition, % at 10 µM | actives 0.47% (n = 350,000);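 active means every replicate reaching a set inhibition limit, whatever the replicate mean, cut at about 25% in these data; inconclusive means mean inhibition reaches that limit but some replicates miss it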;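 further: 0% = plate neutral control median and 100% = total signal loss; the record names both 10 and 1 µM as test concentration; the first replicate is given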
Target sequence (P42568 whole entry, looked up): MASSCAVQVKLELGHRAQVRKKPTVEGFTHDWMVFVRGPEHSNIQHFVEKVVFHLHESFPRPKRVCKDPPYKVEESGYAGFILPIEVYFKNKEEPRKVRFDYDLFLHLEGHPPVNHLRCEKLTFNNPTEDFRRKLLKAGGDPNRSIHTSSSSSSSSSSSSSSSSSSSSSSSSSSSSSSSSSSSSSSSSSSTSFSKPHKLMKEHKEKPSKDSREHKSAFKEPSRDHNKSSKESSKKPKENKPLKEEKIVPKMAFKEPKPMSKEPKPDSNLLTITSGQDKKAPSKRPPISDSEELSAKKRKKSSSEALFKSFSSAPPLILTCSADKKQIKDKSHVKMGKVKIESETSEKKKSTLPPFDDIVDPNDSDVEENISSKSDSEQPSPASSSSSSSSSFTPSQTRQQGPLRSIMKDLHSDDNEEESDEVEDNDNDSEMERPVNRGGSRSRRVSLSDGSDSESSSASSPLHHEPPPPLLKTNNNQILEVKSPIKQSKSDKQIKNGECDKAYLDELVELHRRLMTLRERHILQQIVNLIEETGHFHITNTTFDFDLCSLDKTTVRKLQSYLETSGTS
Bfl-1 A1 inh – inhibitors of the anti-apoptotic protein A1, read as caspase activation. AID 2462. caspase activation, % (no concentration beside the values). MEF A1-2A-BIM cells, Caspase-Glo 3/7 luminescence, 3 h; percent of clofoctol response, vehicle zero. actives 0.066% (n = 330,000);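 active means over half of replicate activation scores above 10%, or exactly half above 10 with the replicate mean above 10; inconclusive means replicate mean below 10 yet half the replicates above 10; inactive means over half of replicates below 10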;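 further: wells of about 30 µL received 50 nL stock; many hits fall short of the cut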
E coli growth – blocks Escherichia coli growth | OD600, 23 h; stronger effect = lower value | OD600 absorbance (concentration not given with the values) | actives 0.21% (n = 330,000) | AID 1053175;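 active means OD600 absorbance below the run mean of sample wells minus 3.6 SD, in any replicate, cut at about 0.56 in these data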;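 further: stock transfer was 300 nL into about 60 µL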
rRNA inh HTS OD600 – also measured in rRNA inh HTS; calls as there; OD600 change, %; measured here: OD600 growth;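 optical density of the mix in the first replicate; 0 = DMSO median and -100 = no signal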
rRNA inh HTS RFP – further read-out of rRNA inh HTS, marked with its call; RFP signal change, %; measured here: RFP humanized mutant strains;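 first replicate; 0 = DMSO median and -100 = no signal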
Numbers without * were called inactive; i = inactive; ? = inconclusive; · = not tested or not shown. The list is partial (hit frequency here may not be typical).

The first 4 compounds, ahead of the listing:
SMILES | UCH37 DUB inh | Beta cell apopt | FGF22 binding | rRNA inh HTS | rRNA inh HTS OD600 | rRNA inh HTS RFP | T cruzi inh | AF4-AF9 inh | Bfl-1 A1 inh | E coli growth
COc1cc(/C=N/n2c(C)n[nH]c2=S)ccc1OCc1ccc(F)cc1 | · | -4 | i | 1 | -3 | -8.4 | ? | -8.0 | 0.0 | ·
CC(=O)N1CCN(C(=O)c2ccc(OC3CCN(CCc4ccccc4)CC3)cc2)CC1 | 0.8 | -1 | i | 8 | 11 | 1.8 | -5 | 0.1 | 0.9 | 0.72
CC(C)(C)OC(=O)NCCc1nnc(SCC(=O)Nc2cccc(Cl)c2)o1 | -1.1 | -5 | · | · | · | · | -7 | · | 0.5 | 0.69
CCOC(=O)/C(=C/Nc1ccccc1)[N+](=O)[O-] | 2.5 | 1 | · | 15 | 6 | 0.2 | -13 | · | 0.5 | ·

Main list (from the top)
SMILES | UCH37 DUB inh | Beta cell apopt | FGF22 binding | rRNA inh HTS | rRNA inh HTS OD600 | rRNA inh HTS RFP | T cruzi inh | AF4-AF9 inh | Bfl-1 A1 inh | E coli growth
COc1cc(/C=N/n2c(C)n[nH]c2=S)ccc1OCc1ccc(F)cc1 | · | -4 | i | 1 | -3 | -8.4 | ? | -8.0 | 0.0 | ·
CC(=O)N1CCN(C(=O)c2ccc(OC3CCN(CCc4ccccc4)CC3)cc2)CC1 | 0.8 | -1 | i | 8 | 11 | 1.8 | -5 | 0.1 | 0.9 | 0.72
CC(C)(C)OC(=O)NCCc1nnc(SCC(=O)Nc2cccc(Cl)c2)o1 | -1.1 | -5 | · | · | · | · | -7 | · | 0.5 | 0.69
CCOC(=O)/C(=C/Nc1ccccc1)[N+](=O)[O-] | 2.5 | 1 | · | 15 | 6 | 0.2 | -13 | · | 0.5 | ·
CC1(O)c2ccccc2C(=O)N1CCc1ccccc1F (centres undefined) | 4.9 | -5 | · | · | · | · | 15 | · | -0.8 | 0.74
Cc1ccc(NC(=O)CN2C(=O)S/C(=C\c3ccccn3)C2=O)cc1 | 1.5 | -1 | i | 4 | 8 | -2.7 | -8 | -1.2 | 0.4 | 0.69
CN(C)/C(=N\S(=O)(=O)c1ccccc1)c1ccc(Cl)cc1 | · | 1 | i | 10 | 15 | 0.8 | -1 | -1.7 | -1.9 | ·
C=CCN(CC=C)C(=O)c1cccc(S(=O)(=O)N2c3ccccc3CC2C)c1 (centres undefined) | 0.6 | 2 | i | -29 | -28 | -4.8 | 11 | -25 | -0.1 | 0.67
COc1ccccc1N1CCN(C(=O)c2ccc3[nH]c(C)c(C)c3c2)CC1 | 1.9 | 6 | i | 10 | 0 | 5.5 | 2 | 5.4 | -0.9 | 0.78
CCC(C(=O)NC1CC1)n1nc(C)c2c(C)n(-c3ccccc3)nc2c1=O (centres undefined) | 2.9 | -5 | i | -1 | 12 | -3.4 | -4 | -0.1 | 1.2 | 0.67
Cn1c(C(=O)N2CCCC(C(=O)NCc3cccs3)C2)cc2sccc21 (centres undefined) | 0.6 | 5 | i | -3 | -1 | 0.1 | -8 | -28 | -0.3 | 0.69
CCCc1cc(=O)[nH]c(SCC(=O)NCc2ccc3c(c2)OCO3)n1 | 5.2 | -6 | i | 1 | 1 | -0.9 | -17 | 2.2 | -0.3 | 0.72
COc1ccccc1OCC(=O)Nc1ccc(N2CCCCC2)cc1 | 1.3 | -2 | i | -7 | -16 | 7.4 | 1 | 2.1 | -0.4 | 0.65
CCN(CCCNC(=O)CCCN1C(=O)COc2ccc(C)cc21)c1cccc(C)c1 | 0.5 | -4 | · | · | · | · | 20 | · | -0.3 | 0.72
OCCN(CCO)c1nc(-c2ccccc2)nc2c1oc1ccccc12 | -7.3 | -4 | · | -1 | 5 | -0.9 | 11 | -3.4 | 0.0 | 0.74
O=C(CC1C(=O)NCCN1Cc1cccc(F)c1)NC1CCCCCC1 (centres undefined) | -2.5 | -1 | i | -3 | -16 | 2.7 | 5 | 1.2 | 0.3 | 0.7
O=S(=O)(Cc1ccccc1)Nc1ccc(Br)cn1 | -1.2 | 1 | i | -18 | -20 | -8.1 | 9 | -0.5 | 0.5 | 0.71
O=C(Nc1ccc(S(=O)(=O)N2CCc3ccccc32)cc1)C(F)(F)F | 4.2 | -4 | i | -3 | -11 | 11 | -6 | -2.7 | 1.2 | 0.64
S=c1nc(-c2csc3c2CCCC3)[nH][nH]1 | -1.5 | -7 | i | -27 | -28 | -7.2 | -10 | -6.9 | -0.9 | 0.58
CC(=O)c1cccc(NC(=O)CN2C(=S)NC(C)(C)CC2C)c1 (centres undefined) | 1.9 | -6 | · | 15 | 11 | -0.1 | -11 | -0.6 | 0.4 | 0.71
N#Cc1cccc(NC(=O)CNc2cccc(S(=O)(=O)N3CCCCC3)c2)c1 | 1.1 | 2 | i | -10 | -12 | 4.6 | -7 | 0.9 | 2.0 | 0.7
CCOc1ccc(CCNC(=O)CCS(=O)(=O)c2ccc(Br)cc2)cc1OCC | 1.3 | -5 | i | 3 | 7 | 1.5 | -6 | 0.7 | 0.0 | 0.69
COc1ccccc1C1CC(c2ccccc2)Nc2ncnn21 (centres undefined) | -0.8 | -3 | i | -9 | -18 | -8.4 | -21 | -6.4 | 0.1 | 0.68
COc1ccc(C(C)=O)cc1CSc1nnc(-c2ccccc2O)n1-c1ccccc1 | 0.6 | -5 | i | -27* | -18* | -0.2* | 17 | 12 | -0.4 | 0.76
Cc1cc2c(C)nc3ccccc3c2o1 | -3.4 | 7 | · | · | · | · | -10 | · | -0.4 | 0.71
O=C(NCc1ccco1)C1CCCN1C(=O)NCc1ccccc1 (centres undefined) | 0.9 | -5 | · | · | · | · | -4 | · | -1.0 | 0.72
CCn1c(=O)n(CC)c2cc(N3CCCC3)c(NC(=O)c3cccc(C)c3)cc21 | 2.7 | 1 | i | -5 | -3 | 3.8 | 24 | 4.8 | -0.4 | 0.68
Cc1c(C(=O)N2CCN(Cc3ccc4c(c3)OCO4)CC2)sc2ncnc(N3CCN(c4ccccc4F)CC3)c12 | 2.5 | -7 | i | -3 | 0 | 0.0 | 64* | -23 | -0.1 | 0.77
Cc1nnc(SCC(=O)Nc2ccc(O)cc2)c2ccccc12 | 11 | -9 | i | 7 | 12 | 1.5 | 3 | 1.9 | -0.3 | 0.64
CNC(=S)NNC(=O)c1sccc1OCc1cccc(C(F)(F)F)c1 | 1.7 | 1 | · | · | · | · | 17 | · | 0.0 | 0.71
COC(=O)[C@@H]1C[C@@]2(O)[C@H](O)[C@H](O)[C@H](O)C[C@H]2N1Cc1cc(F)ccc1F | 2.3 | -14 | i | 10 | 18 | -6.3 | -27 | -2.1 | 0.1 | ·
Cc1ccc([C@@H]2[C@@H]3C(=O)N(c4ccccc4)C(=O)[C@@H]3[C@]3(C)C(=O)N(Cc4ccc(-c5ccccc5)cc4)CC(=O)N23)o1 | 0.9 | 3 | i | 1 | -5 | 2.3 | 10 | -3.0 | -0.6 | ·
Fc1cc2[nH]c(=S)[nH]c2cc1Cl | 2.0 | -13 | i | 4 | -5 | -2.7 | -1 | 0.0 | -0.1 | 0.64
CCn1c(SCC(=O)c2ccccc2)nc2ccccc2c1=O | 1.3 | 2 | i | 3 | -3 | 6.8 | -5 | -1.7 | 0.7 | 0.67
CCOc1ccc(C(c2c(NC(=O)c3ccco3)sc(C)c2C)N2CCOCC2)cc1 (centres undefined) | -5.8 | 12 | i | 5 | -8 | -1.8 | · | 3.4 | -0.6 | 0.69
COc1ccccc1C(=O)NNC(=O)C1CCCO1 (centres undefined) | 7.2 | 1 | i | 4 | 1 | -3.8 | -7 | -0.3 | -0.6 | 0.63
Cc1cc(C(=O)N/N=C2\CC(=O)c3ccccc32)c(C)n1-c1ccc(F)cc1 | · | 2 | · | 4 | -4 | 5.0 | 23 | -18 | -0.8 | ·
COc1ccc(C(=O)COC(=O)CCC(=O)c2cccs2)cc1 | 0.7 | -2 | i | -19 | -28 | -2.2 | -28 | -32 | 1.3 | 0.65
C=CCOc1cccc(C2C(C(=O)c3ccc(C)o3)=C(O)C(=O)N2Cc2ccncc2)c1 (centres undefined) | 5.9 | -7 | · | · | · | · | 8 | · | -2.1 | 0.71
O=C(COc1ccc(Br)cc1)NN1C(=O)c2ccccc2C1=O | 5.1 | · | i | 18 | 2 | 3.0 | -3 | 0.2 | 1.3 | 0.67
CCn1c(SCC(=O)Nc2ccc(N(C)C)cc2)nnc1-c1cccc(C)c1 | 6.6 | -3 | · | · | · | · | 0 | · | -0.7 | 0.75
Cc1cccc(C)c1OCc1nnc(SCC(=O)Nc2nccs2)o1 | 3.7 | -3 | i | -38 | -51 | -11 | -11 | -1.5 | 0.3 | 0.74
CCCC(c1nnnn1Cc1cccs1)N1CCN(C)CC1 (centres undefined) | 0.7 | 0 | · | 14 | 1 | -0.7 | -4 | -3.3 | -0.3 | 0.73
CCCC(CCC)C(=O)NC1CCN(Cc2ccccc2)CC1 | 0.9 | 4 | · | 19 | 11 | 0.2 | 22 | -0.6 | 0.4 | 0.7
CC(C)C(=O)N=c1sc2cccc(F)c2n1C | 2.1 | -13 | i | -3 | -8 | 0.6 | 0 | 0.8 | -1.0 | 0.7
CCN(CC)c1ccc(C(=O)OCC(=O)Nc2ncccn2)cc1 | 3.1 | -1 | i | 1 | -7 | 0.1 | · | 4.9 | -1.0 | 0.71
COc1cc(C2Nc3ccccc3NC3=C2C(=O)CC(C)(C)C3)cc(OC)c1OC(C)=O (centres undefined) | 11 | -7 | i | 35 | 10 | 8.0 | -8 | 2.1 | 0.5 | 0.72
CNc1nc(-c2cccs2)cc(C(F)(F)F)c1C#N | -271 | 5 | i | 3 | 14 | -2.5 | 4 | -5.7 | 0.4 | 0.65
c1ccc2c(c1)OC(CCCN1CCCCC1)c1ccccc1S2 (centres undefined) | 3.6 | 2 | · | · | · | · | 26 | · | 0.6 | 0.67
Cc1ccc2c(c1)N(CC(=O)N1CCCC1)C(=O)C(C)O2 (centres undefined) | 2.3 | -1 | i | 12 | 14 | 2.2 | -3 | 2.2 | 0.0 | 0.67
COc1ccc(/C=C2\SC(=O)N(CCNC(=O)Cn3[nH]c(=O)c4ccccc4c3=O)C2=O)cc1 | 6.0 | -2 | i | 10 | 17 | 5.0 | · | -9.5 | 0.3 | 0.67
O=S(=O)(c1cnc(Cl)c(Br)c1)N1CCCCCC1 | 2.6 | 1 | · | · | · | · | 0 | · | -1.2 | 0.7
Cc1ccc(-n2c(-c3ccco3)nc3nc4ccccc4nc32)cc1 | -92 | -1 | i | 1 | 1 | -1.1 | 13 | 0.0 | -0.5 | 0.75
CN1CCN(S(=O)(=O)c2cccc(C(=O)Nc3cc(C(N)=O)cc(C(N)=O)c3)c2)CC1 | -0.2 | -3 | i | 13 | 15 | 0.8 | -5 | -0.4 | 0.0 | 0.72
CCN1CC(C)C(O)(c2ccccc2)CC1C (centres undefined) | 0.2 | -2 | · | · | · | · | 9 | · | 0.2 | 0.77

Bioassay records as filed in PubChem.
